Six1-Eya2 inh – blocks human Six1 binding to Eya2; AlphaScreen GST-Six1/His-Eya2 binding, biochemical; active compounds read low; control for the full effect not named in the record; 360,000 compounds, 0.56% hits; activity change, % (concentration not given with the values); Q15475+O00167; in the data active = activity change below about -65%; inconclusive = about -30% to -65%; inactive = above about -30%
Target sequence (O00167 whole entry, looked up): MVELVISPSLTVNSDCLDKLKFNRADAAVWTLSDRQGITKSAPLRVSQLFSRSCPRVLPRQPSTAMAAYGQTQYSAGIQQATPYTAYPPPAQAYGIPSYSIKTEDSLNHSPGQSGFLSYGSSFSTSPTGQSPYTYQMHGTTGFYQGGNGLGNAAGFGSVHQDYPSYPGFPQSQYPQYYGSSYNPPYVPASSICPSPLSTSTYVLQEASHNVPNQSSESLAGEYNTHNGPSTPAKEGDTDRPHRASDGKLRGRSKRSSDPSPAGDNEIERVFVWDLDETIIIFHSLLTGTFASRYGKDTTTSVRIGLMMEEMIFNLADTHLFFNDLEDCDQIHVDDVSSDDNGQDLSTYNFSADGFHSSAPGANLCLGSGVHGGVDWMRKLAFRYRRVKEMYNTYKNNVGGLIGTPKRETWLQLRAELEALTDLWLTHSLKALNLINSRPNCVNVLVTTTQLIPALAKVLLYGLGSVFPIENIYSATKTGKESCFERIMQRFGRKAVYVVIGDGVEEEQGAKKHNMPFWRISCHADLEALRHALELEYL
Target sequence (Q15475 whole entry, looked up): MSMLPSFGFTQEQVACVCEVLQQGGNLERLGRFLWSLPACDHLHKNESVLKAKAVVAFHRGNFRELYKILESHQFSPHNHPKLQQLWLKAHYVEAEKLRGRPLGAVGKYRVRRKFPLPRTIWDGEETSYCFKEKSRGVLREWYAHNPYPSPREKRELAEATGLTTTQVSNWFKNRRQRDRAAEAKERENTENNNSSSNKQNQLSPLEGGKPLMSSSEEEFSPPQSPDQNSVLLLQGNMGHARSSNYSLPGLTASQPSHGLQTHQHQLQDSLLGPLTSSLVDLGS
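GST-Six1 + His-Eya2 (5X stock: 250/500 nM); Tris pH 8.0, 300 mM NaCl, 0.05% BSA, 0.02% Tween 20; GSH donor/Ni acceptor beads; 1 h 37 °C dark; AlphaScreen readout.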
CtBP-E1A blk – inhibitors of CtBP/E1A interaction; AID 651724; 340,000 compounds, 0.49% hits; AlphaScreen GST-E1A/His-CtBP binding, 1536-well; active compounds read low; control for the full effect not named in the record; activity change, % (test concentration not listed); in the data active means activity change below about -65%; inconclusive means about -30% to -65%; inactive means above about -30%
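Protein mix (5X: 125 nM each GST-E1A, His-CtBP) was incubated with pinned compound 2 h at 37 deg C in dark, in 50 mM Tris pH 8.0 buffer with 300 mM NaCl. Glutathione donor and nickel acceptor beads followed; AlphaScreen signal read after 1 h.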
Starred values were filed as active, the others as inactive. % is scaled to controls: 0 for no effect and ±100 for the full control effect. These rows are one share of the data (hit frequency here may not be typical).

SMILES	Six1-Eya2 inh	CtBP-E1A blk
C[C@H](CO)N1C[C@H](C)[C@@H](CN(C)C(=O)Nc2cccc(Oc3ccccn3)c2)OCc2cnnn2CCCC1=O	-0.8	-9.5
CSCCC(C(=O)NC(C)(C)C)n1c(-c2ccc(C)cc2)nc2ccccc21 (stereo not given)	-7.2	6.0
O=C(NCc1ccccc1)C(c1ccccc1)n1c(C2CC2)nc2ccccc21 (stereo not given)	-0.4	-0.8
CC(=O)C[C@@H]1OC[C@H](CO)N1S(=O)(=O)c1ccc(C)cc1	7.4	-0.4
Cc1ccc(S(=O)(=O)NCc2ccccc2NS(=O)(=O)c2ccc(C)cc2)cc1	-17.4	-9.4
CSc1ncnc2c1ncn2CCCNCC(c1ccccc1)c1ccccc1	-5.8	-17.8
COC(=O)C1=CN(c2ccc(C(C)(C)C)cc2)C(N)=C(C#N)C1c1ccccc1F (stereo not given)	12.1	-18.9
O=C(Nc1ccc(F)cc1)C(c1ccnc2ccccc12)N1CCN(c2cccc(C(F)(F)F)n2)CC1 (stereo not given)	13.9	5.0
CCOC(=O)[C@]12CCCC=C1N(Cc1ccccc1)C(=O)[C@H](CC(=O)N1CCC(c3ccccc3)CC1)C2	-20.7	-17.8
COC(=O)C[C@@H]1C[C@@H]2c3cc(NC(=O)NC4CCCCC4)ccc3O[C@@H]2[C@H](CO)O1	-2.8	-25.1
O=c1c2ccccc2sn1-c1ccc(Cl)cc1Cl	-8.2	2.3
CC(=O)N[C@@H]1C=C[C@@H](CC(=O)NCc2ccc(Cl)cc2)O[C@@H]1CO	4.2	2.0
CCCCCNC(=O)C(c1cccc2ccccc12)n1c(=O)c(-c2ccco2)nc2ccccc21 (stereo not given)	-9.6	-16.2
Cc1[nH]c2ccccc2c1C(=O)c1cc(Cc2ccccc2)sc1N	-1.3	-22.8
CCCCCNC(=O)C(c1ccccc1)n1c(=O)c(-c2cc3ccccc3[nH]2)nc2ccccc21 (stereo not given)	65.4	-9.5
O=C(NCc1ccccc1)C(c1ccncc1)n1c(=O)c(-c2ccco2)nc2ccccc21 (stereo not given)	11.6	0.8
C[C@@H]1CN([C@@H](C)CO)C(=O)c2cc(C3=CCCCC3)cnc2O[C@H]1CN(C)C(=O)Nc1cccc(F)c1	-0.2	1.8
COC(=O)C1=CN(c2ccc(F)cc2)C(N)=C(C#N)C1c1cccc(OC)c1OC (stereo not given)	-13.2	-0.8
COc1ccc(NC(=O)C(c2ccncc2)n2c(=O)c(-c3ccco3)nc3ccccc32)cc1 (stereo not given)	-6.0	0.4
O=C(Nc1ccc(F)cc1)N[C@H]1CC[C@H](CCNS(=O)(=O)c2cccc(Cl)c2)O[C@@H]1CO	1.1	5.9
COc1ccc(NC(=O)C2C(c3ccc4c(c3)OCO4)=Nc3ccccc3N2C(=O)c2cccc(C(F)(F)F)c2)cc1 (stereo not given)	-14.5	-2.9
COC(=O)C[C@H]1C=C[C@H](NC(=O)c2cccc(F)c2)[C@@H](CO)O1	5.4	-4.4
CC(C)(C)OC(=O)Nc1ccccc1-n1nnnc1C(C(=O)c1ccc(F)cc1)N1CCOCC1 (stereo not given)	-1.5	4.6
COC(=O)Cc1ccccc1NS(=O)(=O)c1ccc(C)cc1	3.0	4.7
CCc1c(C2CC2)ncn1Cc1cccc(-c2ccccc2)c1	-7.3	-2.3

The listing continues.
SMILES	Six1-Eya2 inh	CtBP-E1A blk
Cc1cccc(C)c1NC(=O)C(c1ccc(-c2ccccc2)cc1)n1c(=O)c(-c2cc3ccccc3[nH]2)nc2ccccc21 (stereo not given)	14.5	14.9
COc1ccc([C@H]2C[C@@H](n3cc(COC(=O)c4ccccc4)nn3)[C@H](O)CN2C(=O)C2CCCCC2)cc1	-3.4	2.0
CC(C)NC(=O)C1(C)CSCC(=O)N1CCOc1ccccc1 (stereo not given)	-7.8	-1.3
COC(=O)[C@H](NC(=O)c1cc(-c2ccccc2)sc1N)C(C)C	-22.2	-20.5
COC(=O)C[C@@H]1CC[C@@H](NS(=O)(=O)c2ccc(OC)cc2)[C@@H](CO)O1	13.7	-1.9
CCc1ccc(C2CC3C(CN2S(=O)(=O)c2ccc(C)cc2)C(=O)CC(c2ccc(CC)cc2)N3S(=O)(=O)c2ccc(C)cc2)cc1 (stereo not given)	5.0	-1.2
COc1ccc(N2C(=O)c3ccccc3NC(=O)C2C(=O)NCC(C)C)cc1 (stereo not given)	4.0	-16.3
O=C(NC1CCCC1)c1nc(-c2ccco2)oc1-c1ccccc1	-4.5	-4.6
COC(=O)C[C@H]1CC[C@@H](NC(=O)C2CC2)[C@@H](CO)O1	3.8	-17.2
CCCCCCN1C[C@H](n2cc(COC(=O)c3ccccc3)nn2)[C@@H](O)C[C@@H]1c1ccc(Cl)cc1	-3.0	1.3
CO[C@@H]1CN(C)C(=O)c2ccc(NC(=O)C3CCCC3)cc2OC[C@@H](C)N(Cc2ccc(F)cc2)C[C@H]1C	-0.8	-1.4
CNC(=O)C[C@H]1C(=O)N(CCc2ccccc2)C[C@@H]1Cc1ccccc1	0.1	3.4
Cc1cccc(C)c1NC(=O)C1(C)CSCC(=O)N1CC(C)C (stereo not given)	12.2	0.0
C[C@@H]1CN([C@H](C)CO)C(=O)c2cc(Br)cnc2O[C@@H]1CN(C)Cc1ccc(-c2ccccc2)cc1	-0.2	-5.3
O=C(C(=O)N1CCN(c2ccccc2)CC1)c1ccco1	-0.1	2.6
O=C(NCC[C@H]1CC[C@@H](NC(=O)C2CCOCC2)[C@@H](CO)O1)Nc1ccc(Cl)cc1	0.5	-0.4
C[C@@H]1CN([C@H](C)CO)C(=O)CCCn2nncc2CO[C@@H]1CN(C)S(=O)(=O)c1ccc(-n2cccn2)cc1	2.0	-0.5
Cc1ccc(S(=O)(=O)N2[C@H](CC(=O)c3ccc(F)cc3)OC[C@@H]2C(C)C)cc1	16.2	-4.0
CSCCC(c1nc2ccccc2[nH]1)n1c(/C=C/c2ccc(F)c(F)c2)nc2ccccc21 (stereo not given)	1.7	-14.0
CCCCCNC(=O)C(c1cc2ccccc2o1)n1c(=O)c(-c2cc3ccccc3[nH]2)nc2ccccc21 (stereo not given)	26.8	15.1
COc1ccc(CCNC(=O)c2cc([C@@H](NC(=O)OC(C)(C)C)C(C)C)sc2N)cc1OC	-15.0	-4.4
O=C(CC1CC1)N[C@@H]1CC[C@@H](CCNS(=O)(=O)c2ccc(F)cc2)O[C@@H]1CO	21.9	-12.3
COCCN1C(=O)CSCC1(C)C(=O)NC(C)C (stereo not given)	8.5	0.9
O=C(NCc1ccccc1)C(c1cccc2ccccc12)n1c(=O)c(-c2cc3ccccc3[nH]2)nc2ccccc21 (stereo not given)	30.5	28.4
CCCCNC(=O)c1nc(C2CCN(S(=O)(=O)c3ccc(Cl)cc3)CC2)oc1-c1ccccc1	3.3	-4.0

The list goes on:
SMILES	Six1-Eya2 inh	CtBP-E1A blk
C=Cn1cc(CNC[C@H]2O[C@@H](n3cc(C)c(=O)[nH]c3=O)C[C@@H]2O)c(C)n1	7.4	-2.1
CCC(C)CN1C(=O)CSCC1(C)C(=O)Nc1c(C)cccc1C (stereo not given)	-6.6	1.4
COC(=O)C1=CN(c2ccc(N3CCOCC3)cc2)C(N)=C(C#N)C1c1ccc(-c2ccccc2)cc1 (stereo not given)	-11.0	4.7
CCCc1c(-c2ccc(F)cc2F)ncn1Cc1cccc(-c2ccccc2)c1	-15.2	0.8
COC(=O)C1=CN(c2ccc3c(c2)OCO3)C(N)=C(C#N)C1c1ccccc1 (stereo not given)	0.2	0.8
O=C1Nc2ccccc2-n2nnnc2C1N1CCN(CCN2CCOCC2)CC1 (stereo not given)	10.4	6.7
CC(C)c1cc(Cn2c3ccccc3c(=O)n2C(C)Cn2cc(CCc3ccccc3)nn2)on1 (stereo not given)	1.5	5.2
CC(C)(C)NC(=O)C(c1ccncc1)n1c(=O)c(-c2ccco2)nc2ccccc21 (stereo not given)	-5.1	2.5
CC1=C(C(=O)N(C)C)CC(CC(=O)NC2CCCC2)C(=O)N1Cc1ccc(F)cc1 (stereo not given)	-2.2	2.6
O=C(C[C@H]1CC[C@H]2[C@@H](COC[C@@H](O)CN2S(=O)(=O)c2ccc(F)cc2)O1)N[C@@H]1CCN(Cc2ccccc2)C1	-3.3	2.8
C[C@@H]1CCCCO[C@@H](CN(C)C(=O)c2ccccc2)[C@@H](C)CN([C@H](C)CO)C(=O)c2cc(N(C)C)ccc2O1	-3.6	0.6
Cc1cccc(C)c1NC(=O)C(c1ccccc1OC(F)(F)F)N1CCN(C)CC1 (stereo not given)	11.3	0.0
CC1(C(=O)NCc2ccccc2)CN(S(C)(=O)=O)CC(=O)N1CCc1ccc(O)cc1 (stereo not given)	-1.0	5.1
CC(=O)CC1N(S(=O)(=O)c2ccc(C)cc2)c2ccccc2N1S(=O)(=O)c1ccc(C)cc1	-6.8	-8.0
CCN(CC)C(=O)C1=C(C)N(Cc2ccc(F)cc2)C(=O)C(CC(=O)NCc2cccs2)C1 (stereo not given)	1.1	5.5
CC(C)CC1C(=O)N(Cc2cn(CCC3OCCO3)nn2)CCS(=O)(=O)N1Cc1ccc(-c2ccc(F)cc2)cc1 (stereo not given)	-1.5	2.0
COC(=O)C1=CN(c2ccc(C(C)(C)C)cc2)C(N)=C(C#N)C1c1cccc2ccccc12 (stereo not given)	-2.9	3.1
Cc1cccc(C)c1NC(=O)C(c1cccc(F)c1)N1CCN(C)CC1 (stereo not given)	1.4	8.8
C[C@H](CO)N1C[C@H](C)[C@@H](CN(C)CC2CC2)OCc2cnnn2CCCC1=O	-1.8	0.0
CCCCCNC(=O)C(CCc1ccccc1)n1c(=O)c(-c2ccccc2)nc2ccccc21 (stereo not given)	11.3	5.5
C[C@H](CO)N1C[C@H](C)[C@H](CN(C)S(=O)(=O)c2ccc(C#N)cc2)OCc2cnnn2CCCC1=O	-1.7	5.7
Cc1cnc(-c2nc3ccccc3n2C(C(=O)NC(C)(C)C)c2cc3ccccc3o2)cn1 (stereo not given)	-17.3	0.4
C=CCCC(=O)N1C[C@H]2CON(C)[C@H]2C[C@H]1c1ccc(Br)cc1	8.2	-0.2
Cc1ccccc1CN1C(=O)CSCC1(C)C(=O)Nc1ccc2c(c1)OCCO2 (stereo not given)	2.4	-1.1
COc1ccc(CN2C(=O)CSCC2(C)C(=O)NCc2ccccc2)cc1 (stereo not given)	-1.4	-1.7

Sorted by length of the SMILES (high to low): twelve of the compounds above
SMILES	Six1-Eya2 inh	CtBP-E1A blk
CC(C)CC1C(=O)N(Cc2cn(CCC3OCCO3)nn2)CCS(=O)(=O)N1Cc1ccc(-c2ccc(F)cc2)cc1 (stereo not given)	-1.5	2.0
C=Cn1cc(CNC[C@H]2O[C@@H](n3cc(C)c(=O)[nH]c3=O)C[C@@H]2O)c(C)n1	7.4	-2.1
CCN(CC)C(=O)C1=C(C)N(Cc2ccc(F)cc2)C(=O)C(CC(=O)NCc2cccs2)C1 (stereo not given)	1.1	5.5
CC(C)c1cc(Cn2c3ccccc3c(=O)n2C(C)Cn2cc(CCc3ccccc3)nn2)on1 (stereo not given)	1.5	5.2
CC1=C(C(=O)N(C)C)CC(CC(=O)NC2CCCC2)C(=O)N1Cc1ccc(F)cc1 (stereo not given)	-2.2	2.6
CCCCCNC(=O)C(CCc1ccccc1)n1c(=O)c(-c2ccccc2)nc2ccccc21 (stereo not given)	11.3	5.5
COC(=O)C1=CN(c2ccc3c(c2)OCO3)C(N)=C(C#N)C1c1ccccc1 (stereo not given)	0.2	0.8
Cc1cccc(C)c1NC(=O)C(c1ccccc1OC(F)(F)F)N1CCN(C)CC1 (stereo not given)	11.3	0.0
Cc1ccccc1CN1C(=O)CSCC1(C)C(=O)Nc1ccc2c(c1)OCCO2 (stereo not given)	2.4	-1.1
CCCc1c(-c2ccc(F)cc2F)ncn1Cc1cccc(-c2ccccc2)c1	-15.2	0.8
Cc1cccc(C)c1NC(=O)C(c1cccc(F)c1)N1CCN(C)CC1 (stereo not given)	1.4	8.8
CCC(C)CN1C(=O)CSCC1(C)C(=O)Nc1c(C)cccc1C (stereo not given)	-6.6	1.4

(listing goes on)
SMILES	Six1-Eya2 inh	CtBP-E1A blk
CC(C)(C)NC(=O)C(c1cc2ccccc2o1)n1c(=O)c(-c2cc3ccccc3[nH]2)nc2ccccc21 (stereo not given)	66.7	18.0
CC(=O)N1CCC(C(=O)N2c3ccccc3N=C(c3ccc4c(c3)OCO4)C2C(=O)NCc2ccccc2)CC1 (stereo not given)	1.1	0.0
CN1C(=O)[C@H]2[C@@H](c3ccccc3)N[C@]3(CCCN(Cc4ccc(F)cc4)C3=O)[C@H]2C1=O	4.4	-20.8
O=C(C(=O)N1CCN(c2ccccc2)CC1)c1ccncc1	0.4	4.3
COCOCCn1cc(CN2CCS(=O)(=O)N(Cc3ccc(-c4ccc(F)cc4)cc3)C(C(C)C)C2=O)nn1 (stereo not given)	-0.1	-20.6
Cc1cccc(C)c1NC(=O)C1C(c2ccc3c(c2)OCO3)=Nc2ccccc2N1C(=O)c1cccc(C(F)(F)F)c1 (stereo not given)	-5.0	-24.3
O=C1C=C(c2ccc(CO)cc2)C[C@@H](c2ccc(F)cc2)C1	-1.2	-6.6
C[C@@H]1CN([C@@H](C)CO)C(=O)c2cc(Br)cnc2O[C@H]1CN(C)C(=O)Cc1ccccn1	0.2	-12.0
Cc1ccc(N2CCN(C(=O)C(=O)c3ccc4c(c3)OCO4)CC2)cc1	4.2	0.0
Cc1noc(C)c1NC(=O)N(C)C[C@H]1OCc2cnnn2CCCC(=O)N([C@@H](C)CO)C[C@H]1C	0.8	2.4
COc1ccc(C(C(=O)NC(C)(C)C)n2c(-c3ccc(-c4ccccc4)cc3)nc3ccccc32)cc1 (stereo not given)	13.3	26.4

Bioassay records from PubChem.
